Assay outcomes from PubChem BioAssay.
TAR Tat displ: HIV-1 TAR-Tat binding disruption; HIV-1 TAR RNA, Tat peptide displacement FRET; hits give high values; z-score (no concentration beside the values); 0.6% of 100,000 active;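 further: score is relative to mean and SD of negative controls; some compounds called inactive have numbers as strong as hits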
CDC25B-CDK2 inh: human CDC25B-CDK2/CyclinA binding inhibition. z-score (no concentration beside the values). 0.72% of 94,000 active. HTRF CDC25B-CDK2/CyclinA binding, anti-His/anti-Flag; hits give high values;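 further: score is relative to mean and SD of negative controls; strong numbers were not always called active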
Starred values were filed as active, the others as inactive; · = not tested or not shown.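 How the source made its calls: active means z-score from 3 up in half or more of its runs; inactive means the rest.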 Hits appear at their usual frequency; any-hit rate near 0.89%.

The opening four compounds, to show the layout:
Compound	TAR Tat displ	CDC25B-CDK2 inh
CCCNC(=O)Cn1c2ccccc2c2nc(=O)cc(C)n21	2.2	-0.94
CC(C)CCNC(=O)CCC(=O)n1ncc2cc(Cl)ccc21	3.3	-0.58
COc1ccc(S(=O)(=O)NCc2cn3ccccc3n2)cc1	·	-0.65
CCOCCn1cnc2cc(C)c(C)cc21	1.6	0.14

This part in full, from the first entry:
Compound	TAR Tat displ	CDC25B-CDK2 inh
CCCNC(=O)Cn1c2ccccc2c2nc(=O)cc(C)n21	2.2	-0.94
CC(C)CCNC(=O)CCC(=O)n1ncc2cc(Cl)ccc21	3.3	-0.58
COc1ccc(S(=O)(=O)NCc2cn3ccccc3n2)cc1	·	-0.65
CCOCCn1cnc2cc(C)c(C)cc21	1.6	0.14
O=C1C2N=NN(Cc3ccccc3)C2C(=O)N1c1ccccc1 (stereo not drawn)	1.2	-1.4
CCN(CC)c1ccc2nnc(CCC(=O)O)n2n1	1.4	-1.1
CC(=O)N1CCc2cc(S(=O)(=O)C(C)CC(=O)Nc3ccc(Cl)cc3)ccc21 (stereo not drawn)	0.65	·
CCOC(=O)C1=C(C)Nc2nnnn2C1c1cc(OC)ccc1OC (stereo not drawn)	1.6	-0.43
CCCC(C)C(=O)Nc1nc2c(s1)C(=O)CC(C)(C)C2 (stereo not drawn)	0.02	-0.83
CCn1cc(C(=O)NCc2cccs2)c(=O)c2cc(S(=O)(=O)N(C)C3CCCCC3)ccc21	-0.34	-2.1
COC(=O)C1=C(C(=O)OC)C2(OC1c1cccc(F)c1)C(=O)c1ccccc1C2=O (stereo not drawn)	0.68	-0.1
CCCCCn1c(CN2CC(C)OC(C)C2)nc2c1c(=O)[nH]c(=O)n2C (stereo not drawn)	0.37	-2.9
Cc1ccc(-c2cnc(NCc3ccc(F)cc3F)n2C)cc1	0	1.6
O=C1CC(NCc2ccco2)C(=O)N1c1ccc(Br)cc1 (stereo not drawn)	·	-1.4
C#CCSc1nc(C)c2cc(OC)ccc2n1	0.52	-0.82
CCCCc1cc2c(s1)SCC(=O)N2CC(=O)NCCC	0.1	·
O=C(NCC(c1cccs1)S(=O)(=O)c1ccc(F)cc1)C1CCCCC1 (stereo not drawn)	0.69	·
COc1ccc(C2CC(O)=C(C#N)c3nc4ccccc4n32)cc1 (stereo not drawn)	·	-1.6
CCc1nc(SCc2cc(=O)n3nc(CC)sc3n2)n[nH]1	1.2	·
Cc1cccc(Cn2c(C3CC(=O)N(Cc4ccccc4)C3)nc3ccccc32)c1 (stereo not drawn)	2.3	-2.1
CCOC(=O)Cn1c(CN2CCCCC2C)nc2c1c(=O)n(C)c(=O)n2C (stereo not drawn)	-1.6	0.26
Cc1nnc(Nc2cccc(C(F)(F)F)c2)c2ccccc12	·	0.67
CCCn1c2ccccc2c2cn[nH]c(=O)c21	-1.1	3.3
CC1CCC2C(=O)N(c3cccc(C(=O)OC(C)C(=O)c4ccccc4)c3)C(=O)C2C1 (stereo not drawn)	0.63	-2.6
CCn1c(=O)c2c(nc3n2CCN3c2ccc(C)cc2)n(C)c1=O	1.3	·
COc1ccccc1OCCSc1nc(-c2ccc(Cl)cc2)nc2cc(=O)[nH]n12	3.9	·
COCCNC(=O)CSc1nc2nc(C)cc(C)n2n1	·	0.27
O=c1[nH]c(=S)[nH]c(-c2ccccc2)c1Cc1c(O)ccc2ccccc12	·	-0.72
CC1(C)CC(=O)c2c(-c3cccnc3)n[nH]c2C1	·	-1.9
CC(=O)C(N=Nc1ccc2c(c1)COCO2)C(C)=O	·	-1.6
Cc1oc2c(F)c(F)c(F)c(F)c2c1S(=O)(=O)Oc1ccc(C#N)cc1	·	-0.73
O=C(O)c1cccn1-c1cccnc1	1.2	0.77
CC1CCCN(c2c(-c3ccccc3)c(=O)c2=O)C1 (stereo not drawn)	2.5	·
Cc1ccc(-c2ccc(=O)[nH]n2)cc1S(=O)(=O)Nc1ccc2c(c1)OCO2	1.4	-1.7
CCCc1cc(=O)n2[nH]c(NC(=O)c3ccc(C(C)(C)C)cc3)nc2n1	0.92	-1.6
COc1ccc(/C(O)=C2\C(=O)C(=O)N(CCN(C)C)C2c2ccccc2F)cc1 (stereo not drawn)	1.3	-0.1
CC(C)Cn1c(=O)c2sccc2n2c(CCCC(=O)NCCc3c[nH]c4ccccc34)nnc12	-0.64	·
O=C(COc1ccc(F)cc1)N(Cc1ccco1)Cc1ccco1	2.4	-0.65
O=c1onc(-c2cccs2)n1Cc1cccc(F)c1	0.69	2.2
Cc1nn(C(=O)C2CC2)c(C)c1Oc1ccc(Cl)cc1	·	-2.2

Three entries out of the list, sorted by SMILES length, ascending.
Compound	TAR Tat displ	CDC25B-CDK2 inh
O=c1onc(-c2cccs2)n1Cc1cccc(F)c1	0.69	2.2
Cc1ccc(-c2ccc(=O)[nH]n2)cc1S(=O)(=O)Nc1ccc2c(c1)OCO2	1.4	-1.7
CC(C)Cn1c(=O)c2sccc2n2c(CCCC(=O)NCCc3c[nH]c4ccccc34)nnc12	-0.64	·

More compounds:
Compound	TAR Tat displ	CDC25B-CDK2 inh
CCOC(=O)Nc1sc(C(=O)OC(C)C)c(C)c1C(N)=O	2.3	-1.2
Cc1cc(C)c(NC2=NC3CS(=O)(=O)CC3S2)c(C)c1 (stereo not drawn)	0.38	·
Cc1cc2c3c([nH]c2cc1S(=O)(=O)Nc1cccc(Cl)c1)CC(C)(C)CC3=O	1	·
COc1ccc(Oc2cc(C(F)(F)F)ccn2)cc1	·	-1.1
COc1ccccc1NC(=O)N1CCc2nc(N3CCCCC3)ncc2C1	1.3	·
O=C1c2oc3ccccc3c(=O)c2C(c2ccncc2)N1c1nccs1 (stereo not drawn)	·	-0.84
CC1CCCC(NC(=O)C2CCN(c3ncnc4c3nc3n4CCCCC3)CC2)C1C (stereo not drawn)	0.68	·
Cc1ccc(S(=O)(=O)N(C(=O)c2cccnc2)c2ccc3oc(=O)sc3c2)cc1	-1.1	-0.7
CCOC(=O)c1c(C)oc2ncnc(Nc3ccc4c(c3)OCCO4)c12	-0.44	·
COCCNC(=O)C(=O)NCCCO	0.03	-1
CSc1cccc(NC(=O)CSc2ncc3c(n2)-c2ccccc2N(C)S3(=O)=O)c1	0.43	·
CC(C)c1ccc(-c2c(N3CCc4ccccc4C3)c(=O)c2=O)cc1	0	·
O=C(CCC(=O)N1CCSc2ccccc21)Nc1ccccc1F	1.5	-1.9
O=S(=O)(c1ccc(-n2cccn2)cc1)N1CC=C(c2ccccc2)CC1	1.7	·
O=C(O)c1ccc2c(c1)N(Cc1ccccc1)C(=O)c1ccccc1S2=O (stereo not drawn)	·	0.05
CC1=C(c2ccc(C)c(C)c2)S(=O)(=O)N=C1Nc1c(C)cccc1C	-0.01	-1.6
CCc1nnc(NC(=O)C(=O)Nc2ccc3nc4n(c(=O)c3c2)CCCCC4)s1	1.2	0.33
COc1ccc(-c2cc(C(F)(F)F)nc(-n3ccnc3C)n2)cc1	·	-0.99
CC1(C)CC(=O)C2=C(C1)OC1=C(C(=O)CC(C)(C)C1)C2c1ccc(-c2ccccc2Cl)o1	·	-1.6
CC(C)CC(=O)Nc1nnc(S(=O)(=O)N2CCCCC2)s1	1.2	-2.6
CC(C)(C)N1CN=C2SC(CO)(CO)C(=O)N2C1	1.7	-0.61
Cc1ccc(S(=O)(=O)Nc2cccc(N3CCCS3(=O)=O)c2)cc1C	-0.6	·
Cc1c(S(=O)(=O)NCc2csc(-c3cccs3)n2)cnn1-c1ccccc1	·	-3.6
O=C(Nc1cccc(O)c1)c1cc2n(n1)C(C(F)(F)F)CC(c1ccco1)N2 (stereo not drawn)	0.25	0.29
CCC(C(=O)N1CCOCC1)n1c2ccccc2c2nc(=O)cc(C)n21 (stereo not drawn)	-1.2	-1
CN(C)c1ncnc(Cl)c1[N+](=O)[O-]	2.3	-1.6
Cc1ccc(OCCn2c(SCCC(=O)O)nc3c(N)ncnc32)cc1	·	0.4
CN(C(=O)CN1C(=O)CSc2ccc(S(=O)(=O)N3CCOCC3)cc21)C1CCCCC1	0.95	·
CCCCC(=O)Oc1ccc2c(C)cc(=O)oc2c1	·	0.6
Cc1ccc2c(c1)c1c(n2CC(O)CNCc2ccco2)CCCC1 (stereo not drawn)	3.2	0.67
COC(=O)c1scc(S(=O)(=O)Cc2ccco2)c1N/N=C(\C#N)S(=O)(=O)C(C)C	·	-1.8
COc1ccc(C2Nn3c(nnc3-c3ccccc3)SC2C(=O)NCC2CCCO2)cc1Cl (stereo not drawn)	0.43	-2.2

(cont.)
Value order – TAR Tat displ	CDC25B-CDK2 inh
O=C(c1ncoc1-c1cccs1)N1CCOCC1
 : 2.1	·
NC(=O)C1CCN(C(=O)c2cc3c(=O)n4ccccc4nc3s2)CC1
 : ·	-0.37
CN(C)C(=O)c1ccc(OCC(F)(F)F)nc1
 : ·	-2.2
COCc1cc(C)nc2sc3c(=O)n(-c4cccc(C)c4C)nnc3c12
 : 1.2	-1.7
O=C(Nc1ccc2nc3n(c(=O)c2c1)CCCCC3)c1ccco1
 : -0.69	2.3
O=S(=O)(CCN(C1CCCCC1)S(=O)(=O)c1ccc(Cl)cc1)N1CCNCC1
 : 1.5	·
Cc1nc(OCc2ccccc2)c2sc3nc4c(cc3c2n1)COC(C)(C)C4
 : ·	-5.5
Cc1ccc2oc(=O)c3cc(C(=O)N(Cc4ccco4)CC4CCCO4)sc3c2c1 (stereo not drawn)
 : ·	-1.5
Cc1ccc(C)c(NS(=O)(=O)c2ccc3c(c2)CCN3S(C)(=O)=O)c1
 : 0.87	·
CN(CCNC(=O)Nc1cn(C)c(=O)c2ccccc12)Cc1ccccc1
 : -2.6	·

Looked up by compound from the entries so far:
Value order – TAR Tat displ	CDC25B-CDK2 inh
CC(C)CC(=O)Nc1nnc(S(=O)(=O)N2CCCCC2)s1
 : 1.2	-2.6
Cc1oc2c(F)c(F)c(F)c(F)c2c1S(=O)(=O)Oc1ccc(C#N)cc1
 : ·	-0.73

Following part
Value order – TAR Tat displ	CDC25B-CDK2 inh
O=C1c2nccnc2C(=O)N1c1cccc(F)c1
 : -1.4	-2.3
Nc1nc(SCC(=O)NCCc2ccc(S(N)(=O)=O)cc2)n[nH]1
 : ·	0.02
Cc1cc(C)c2c(-n3cccc3)c(C(=O)N3CCC(N4CCCCC4)CC3)sc2n1
 : -0.14	-2.5
COc1ccc(OC)c(NC(=O)N2CC3CCCN3c3ccccc32)c1 (stereo not drawn)
 : 0.08	·
O=C(CN1CCCCC1)N1c2ccccc2Sc2ccccc21
 : -0.39	-0.65
CCC1CCCCN1Cc1ccc(CNC(=O)CCc2nnc3ccc(N4CCOCC4)nn23)o1 (stereo not drawn)
 : -0.04	·
Cc1nn2c(=O)cc(COc3ccc(C)c(C)c3)nc2s1
 : 4.5	-4.4
CC(=O)N1N=C(c2ccc(C)o2)OC1c1ccc(F)cc1 (stereo not drawn)
 : 0.12	·
COc1ccc(S(=O)(=O)N2CCC(Oc3ccc(-n4cnnn4)cc3)CC2)cc1
 : -0.08	-0.7
Cc1sc2c(c1C)CSC(C(=O)Oc1ccc(F)c(Cl)c1)=C2
 : 0.24	·
COc1cccc(/C=C/c2nc(C#N)c(NCCCN(C)C)o2)c1
 : 1.1	-2.5
O=S(=O)(c1ccccc1)c1cnc2ccc(F)cc2c1NCc1ccccc1
 : 2.3	-0.09
Cc1cc(-c2ccc(S(=O)(=O)N3CCOCC3)s2)on1
 : 0.08	·
Cn1nc(C(=O)N2CCN(c3ccccn3)CC2)c2c1-c1ccccc1S(=O)(=O)C2
 : 0.92	0.85
CC(CS(=O)(=O)c1ccc2c(c1)NC(=O)CS2)C(=O)N1CCN(c2ccccc2)CC1 (stereo not drawn)
 : -5.7	·
O=C(Cn1ncc2c(=O)oc3ccccc3c21)NCC1CCCO1 (stereo not drawn)
 : ·	-2.2
Cc1nc2sc(C)c(C)n2c(=O)c1S(=O)(=O)N1CCN(c2ccccc2F)CC1
 : -0.13	·
CC1Cn2cc(C(=O)N3CCN(Cc4ccc5c(c4)OCO5)CC3)c(=O)c3c(Cl)ccc(c32)O1 (stereo not drawn)
 : 0.24	·
Oc1ccccc1Nc1nc2ccc(Cl)cc2n2cnnc12
 : 0.12	-1.6
CCC(C)NC(=O)Cn1ncn2c(cc3sccc32)c1=O (stereo not drawn)
 : -1.2	-2.2
O=C(c1ccc(F)cc1)c1cn(Cc2ccc(F)cc2)c2cc3c(cc2c1=O)OCO3
 : -1.4	-1.4
CCn1c(SCC(=O)O)nc2cc(Cl)c(Cl)cc21
 : ·	-0.76
COc1ccc(S(=O)(=O)N2CCN(S(=O)(=O)c3ccc(Cl)cc3)CC2)cc1
 : 0.85	0.16
CCOc1ccc(/C(O)=C2\C(=O)C(=O)N(c3nnc(C)s3)C2c2ccc(F)cc2)cc1 (stereo not drawn)
 : 1.1	-2.6
CN1CCN(C(=O)Cn2c(=O)c3cccn3c3ccc(F)cc32)CC1
 : 0.81	·
CC(=O)N1c2ccccc2CC1C(=O)NCCN(C)C1CCCCC1 (stereo not drawn)
 : 1.9	·
Cn1c(=O)c2cc(C(=O)Nc3nc4ccccc4s3)sc2c2ccccc21
 : -0.47	-1.3
Cc1nc2c(c(C)nn2C)c(C)c1CCC(=O)NCc1cccs1
 : 0.94	-0.98
CC(C)c1ccc(C2C(C(=O)c3cccs3)=C(O)C(=O)N2CCN2CCOCC2)cc1 (stereo not drawn)
 : -0.13	-0.54
Cc1cc(S(=O)(=O)Nc2ccc3c(c2)N(S(=O)(=O)c2ccc(F)cc2)CCC3)ccc1F
 : 0.2	·
COc1cc(C=Nc2cc(C)ccc2NC(C)=O)cc(OC)c1OC
 : ·	-1.6
CCCS(=O)(=O)N1CCCc2ccc(NS(=O)(=O)c3ccc(CC)s3)cc21
 : 0.37	·
Cc1ccc(-c2cnnc(-n3nc(C)c4c3NC(=O)CC4c3cc(F)ccc3F)n2)cc1 (stereo not drawn)
 : 1.9	-1.8
C=CCn1c(SCC(=O)c2c(C)[nH]c3ccccc23)nnc1-c1cccnc1
 : -0.28	-2.7
